Rango complex inh: qHTS Assay for Inhibitors of Rango (Ran-regulated importin-beta cargo) - Importin beta complex formation; Importin subunit beta-1 (Homo sapiens), Q14974; Rango CFP/YFP FRET sensor + importin beta, 45 min; Potency, µM (titrated, usually from 92.2 µM), without a hit: at the highest dose inhibition of complex formation; 340,000 compounds, 0.031% hits; AID 540263, 2011; active = rising FRET ratio curve, often small or poorly fitted; inconclusive = mostly compound fluorescence or quenching in the first reads; inactive = flat curves in all reads;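 note: potency is the fitted concentration of half-maximal effect; 0% = DMSO wells and 100% = buffer wells lacking importin beta; nearly all actives have a fitted effect of over 15% in size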
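FRET biosensor Rango (snurportin 1 IBB between N-terminal EYFP and C-terminal Cerulean), 50 nM in PBS/1 mM DTT/0.02% Tween-20/0.1% BSA, preincubated 5 min RT with compound; 0.125 microM importin beta added, 45 min RT, CFP/YFP FRET ratio read.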
Rango release inh: qHTS Assay for Inhibitors of RanGTP induced Rango (Ran-regulated importin-beta cargo) - Importin beta complex dissociation; Snurportin-1 (Homo sapiens) + GTP-binding nuclear protein Ran (Homo sapiens) + Importin …; Biochemical FRET Rango-importin beta, RanGTP-induced dissociation; Potency, µM (series often up to 46.1 µM), without a hit: at the highest dose activity change, negative = inhibition; 340,000 compounds, 0.071% hits; AID 540253, 2011; active means falling FRET ratio curve, often poorly fitted, with flat reads before Ran was added; inconclusive means other falling curves, or compound fluorescence or quenching; inactive means flat or rising ratio curve;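 note: potency is the fitted concentration of half-maximal effect; % of control where 0% means no effect; nearly all actives have a fitted effect of over 45% in size; -100% = wells without RanGTP and RCC1; the record marks most hits as doubtful in a second field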
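FRET read at 45 min, room temperature: inhibitors block the CFP/YFP signal rise when RanGTP (0.6 uM Ran, 2 mM GTP, 0.2 uM RCC1) frees Rango (0.1 uM) from importin beta (0.25 uM). Pre-read after 5 min compound exposure flags interference.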
miR-21 FLuc: qHTS Assay for Modulators of miRNAs and/orActivators of miR-21; HeLa miR-21 FLuc reporter, luciferase, 48 h; Potency, µM (series often up to 38.3 µM), inactives show at the highest dose reporter change, positive = more light; 340,000 tested, under 10 active; AID 2288, 2010; active = well fitted rising curve with a large enough effect; inconclusive = small, poorly fitted or top-dose-only effect; inactive = no such curve, though single readings can be large or run the other way;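 note: % of control where 0% means no effect; miR-21 action dims this reporter so a rising signal means less miR-21 action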
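HeLa cells stably expressing CMV-driven firefly luciferase with a downstream miR-21 binding sequence, endogenously expressing miR-21, were treated with titrations (up to about 40uM final) for 48 hours at 37 degree Celsius. Luciferase luminescence was read after lysis.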
GLA inh pH 4.5: qHTS Assay for Inhibitors of Human alpha-Galactosidase at pH 4.5; purified enzyme, 4-MU-alpha-Gal fluorescence, pH 4.5; Alpha-galactosidase A (Homo sapiens), P06280; activity change, negative = inhibition, % at 105 µM; 230,000 tested, under 10 active; inconclusive = small, poorly fitted or top-dose-only inhibition, or a rising curve; inactive = flat fitted curve, though single readings scatter; no compound was filed as active;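 note: 0% = full activity with enzyme and -100% = basal without enzyme; dose as in the result columns while the protocol names 77 µM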
Target sequence (P06280 whole entry, looked up): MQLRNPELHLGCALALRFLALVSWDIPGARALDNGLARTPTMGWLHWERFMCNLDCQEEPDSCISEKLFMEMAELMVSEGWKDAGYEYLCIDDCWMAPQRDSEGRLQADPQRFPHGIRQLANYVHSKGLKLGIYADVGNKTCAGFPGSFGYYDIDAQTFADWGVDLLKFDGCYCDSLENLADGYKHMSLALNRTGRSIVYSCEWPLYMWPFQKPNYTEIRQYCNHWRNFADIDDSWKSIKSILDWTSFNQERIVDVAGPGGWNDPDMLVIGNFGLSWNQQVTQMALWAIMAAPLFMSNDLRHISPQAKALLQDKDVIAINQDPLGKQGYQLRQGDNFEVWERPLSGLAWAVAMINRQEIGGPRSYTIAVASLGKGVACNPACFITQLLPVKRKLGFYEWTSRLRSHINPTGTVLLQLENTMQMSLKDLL
Active calls of the source: *; ? = inconclusive; / = no result given. A portion of the library; count on the stated rates, not on these rows.

SMILES	Rango complex inh	Rango release inh	miR-21 FLuc	GLA inh pH 4.5
CC1C[C@@]2(NC(=O)NC2=O)C(C)CN1C (some centres undefined)	0.1%	-6%	-2%	0
Cn1c([N+](=O)[O-])cnc1N1CCN(c2nncs2)C1=O	-1.8%	21%	1%	-13
COc1cccc([C@@H]2CC=C(C(=O)O)CN2S(=O)(=O)c2ccc(C)cc2)c1	0.9%	-13%	/	/
Brc1ccc(C2Nc3cccc4cccc(c34)N2)o1	-7.4%	-7%	-1%	-4
Cc1nn(CC(=O)Nc2ccc3c(c2)CCC3)c(C)c1[N+](=O)[O-]	-0.7%	2%	/	/
S=C(Nc1ccccc1Cl)N(Cc1ccccc1)Cc1ccccn1	-2.5%	12%	2%	-4
O=C(CC1C(=O)NCCN1C(=O)c1ccc(Cl)cc1)Nc1ccc(F)cc1 (centres undefined)	-0.2%	-3%	0%	/
O=C(Cc1nnc(NC(=O)Nc2ccccc2)s1)NCc1ccccc1	0.6%	-2%	-10%	4
CN(c1ccccc1)c1ccc(/C=C(/CCC(=O)O)c2nc3ccccc3s2)cc1[N+](=O)[O-]	?	9%	/	/
CCn1cc(CN2CCC(C(=O)Nc3ccc(Oc4ccccc4F)cc3)CC2)c(C)n1	-0.3%	1%	13%	/
Cn1c(SCC(=O)Nc2ccccc2-c2ccccc2)nnc1-c1ccco1	2.0%	5%	1%	-4
COc1ccc(N(CC(=O)NC2CCCCC2)S(=O)(=O)c2c(C)[nH]c(=O)[nH]c2=O)cc1	-5.8%	-2%	-1%	4
CCCOc1ccc(S(=O)(=O)Nc2ccccn2)c2ccccc12	0.8%	14%	-20%	/
COc1ccccc1C(=O)NC(=S)NNC(=O)c1sc2ccccc2c1Cl	1.2%	1%	-5%	1
Cc1cc(C)c2nc(NC(=O)C3CC(=O)N(Cc4ccco4)C3)sc2c1 (centres undefined)	-0.5%	10%	6%	-1
COc1ccc(CNC(=O)CCS(=O)(=O)c2cccc3nonc23)cc1	0.5%	13%	-4%	-5
COc1ccc(N(CC(=O)NCc2ccco2)C(=O)CNS(=O)(=O)c2ccc(Cl)cc2)cc1	-2.5%	5%	-2%	/
CC(C)CCNC(=O)COc1ccc2c(c1)C(=O)CC(C)(C)O2	-3.0%	-11%	-37%	16
CCOc1ncccc1C(=O)OCc1c(Cl)cccc1Cl	-2.5%	-12%	-8%	2
CC(C)(C)n1nnnc1C(c1cccc(C#N)c1)N1CCN2CCCC2C1 (centres undefined)	-0.4%	1%	-1%	-9
Cc1cccc(NS(=O)(=O)c2csc(C(N)=O)c2)c1C	0.8%	6%	-1%	/
COc1ccc(C(=O)N/C(=C\c2cccs2)C(=O)N2CCN(C)CC2)cc1OC	2.7%	11%	0%	/
CCOC(=O)C1=C(C)C2C3C(=O)N(c4ccc(C)cc4C)C(=O)C3C1(C)C1C(=O)N(c3ccc(C)cc3C)C(=O)C21 (centres undefined)	0.5%	-9%	-2%	1
CCCn1c(N)c(C(=O)CSc2nc3ccccc3c(=O)n2Cc2ccccc2)c(=O)[nH]c1=O	-2.1%	5%	-1%	2
O=C(Nc1ccccc1-c1nc2ccccc2[nH]1)c1ccc(S(=O)(=O)N2CCCCC2)cc1	0.0%	-12%	-4%	-1
NC(=O)c1ccc(N2CCN(c3ccc(O)cc3)CC2)c([N+](=O)[O-])c1	-0.8%	0%	-5%	5
NC(=O)COC(=O)c1ccc(Cl)c(S(=O)(=O)N(Cc2ccccc2)c2ccc(Cl)cc2)c1	-3.5%	0%	0%	-15
CCCc1[nH]nc2c1C1(CCOC1C)C(C#N)=C(N)O2 (centres undefined)	3.5%	-20%	9%	2
O=c1[nH][nH]cc1C=NCc1cccnc1	0.0%	-11%	-5%	3
CC1C(=O)CC(c2ccccc2)NC1c1ccccc1 (centres undefined)	3.7%	-2%	-1%	4
CCC(=O)Nc1cccc(-c2nc3ncccc3o2)c1C	1.9%	10%	-11%	/
O=C(Cc1cccs1)NCc1cccc(F)c1	1.0%	10%	-36%	-1
Cc1cc(C)n2ncc(C(=O)NCCc3ccccc3)c2n1	-1.3%	-5%	-66%	7
Cc1cc(C)nc(Nc2cccc(Cl)c2)n1	-0.4%	-8%	-7%	/
CS(=O)(=O)c1ccc(C(=O)Nc2cc(-c3ccccc3)nn2-c2ccccc2)cc1	0.2%	-3%	/	/
COc1cc(/C=C2\SC(=S)N(Nc3ccccc3)C2=O)ccc1O	37µM*	17%	-53%	-12
CCc1cccc(CC)c1NC(=O)CSc1nnc(C2CC2)n1N	2.1%	7%	/	/
Cc1ccc(S(=O)(=O)Nc2ccc(S(=O)(=O)Nc3ncccn3)cc2)cc1	-5.9%	14%	0%	1
Cc1ccc(-c2cc(NC(=O)CSc3n[nH]c(N)n3)n(-c3ccccc3)n2)cc1	-2.4%	20%	-18%	-1
Fc1cccc(/C=N/Nc2ccccn2)c1	-3.9%	-3%	-46%	-4

Reformatted with values ahead of the structure: 13 of the compounds above
Rango complex inh,Rango release inh,miR-21 FLuc,GLA inh pH 4.5,mol
3.5%,-20%,9%,2,CCCc1[nH]nc2c1C1(CCOC1C)C(C#N)=C(N)O2 (centres undefined)
0.0%,-11%,-5%,3,O=c1[nH][nH]cc1C=NCc1cccnc1
3.7%,-2%,-1%,4,CC1C(=O)CC(c2ccccc2)NC1c1ccccc1 (centres undefined)
1.9%,10%,-11%,/,CCC(=O)Nc1cccc(-c2nc3ncccc3o2)c1C
1.0%,10%,-36%,-1,O=C(Cc1cccs1)NCc1cccc(F)c1
-1.3%,-5%,-66%,7,Cc1cc(C)n2ncc(C(=O)NCCc3ccccc3)c2n1
-0.4%,-8%,-7%,/,Cc1cc(C)nc(Nc2cccc(Cl)c2)n1
0.2%,-3%,/,/,CS(=O)(=O)c1ccc(C(=O)Nc2cc(-c3ccccc3)nn2-c2ccccc2)cc1
37µM*,17%,-53%,-12,COc1cc(/C=C2\SC(=S)N(Nc3ccccc3)C2=O)ccc1O
2.1%,7%,/,/,CCc1cccc(CC)c1NC(=O)CSc1nnc(C2CC2)n1N
-5.9%,14%,0%,1,Cc1ccc(S(=O)(=O)Nc2ccc(S(=O)(=O)Nc3ncccn3)cc2)cc1
-2.4%,20%,-18%,-1,Cc1ccc(-c2cc(NC(=O)CSc3n[nH]c(N)n3)n(-c3ccccc3)n2)cc1
-3.9%,-3%,-46%,-4,Fc1cccc(/C=N/Nc2ccccn2)c1

(continued)
SMILES	Rango complex inh	Rango release inh	miR-21 FLuc	GLA inh pH 4.5
O=C(N1CCOCC1)N1CCN(C(=O)N(c2ccccc2)c2ccccc2)CC1	-0.3%	4%	0%	0
O=C(NCCCn1ccnc1)c1ccc(Cl)s1	-0.6%	2%	-4%	/
Fc1ccccc1/C=C1\CCCC2=C1NC(=S)NC2c1ccccc1F (centres undefined)	0.5%	-2%	4%	-5
CCC(CC)C(=O)Nc1nnc(S(=O)(=O)N(CC)c2ccc(OC)cc2)s1	-0.9%	-2%	1%	/
COc1cc(C2NC(=O)NC(c3ccccc3)=C2C(C)=O)c(Cl)cc1OCC(=O)O (centres undefined)	-1.8%	1%	0%	-5
CN(C)S(=O)(=O)c1ccc(C(=O)Nc2ccccc2C(=O)NCCCN2CCOCC2)cc1	-6.9%	2%	/	/
CCOc1ccc(C(=O)NCCC(=O)N2CCC3(CC2)NCCc2[nH]cnc23)cc1	1.8%	-10%	-5%	/
Cc1ccc2nc(N(CCCN(C)C)C(=O)c3cc(-c4cccs4)nc4ccccc34)sc2c1	2.2%	12%	29%	/
COc1ccc(N2CC(NC(=O)Nc3ccccc3)CC2=O)cc1 (centres undefined)	-2.7%	-14%	-1%	-8
O=C(COc1ccccc1Cl)N1CCN(c2ncccn2)CC1	5.6%	-3%	-21%	2
O=C(Nc1ccccc1N1CCOCC1)c1ccncc1	0.6%	-6%	/	/
O=C(Nc1ccc(Cl)cc1F)c1ccc(COc2c(F)c(F)c(F)c(F)c2F)o1	-1.8%	2%	-4%	-4
CSCCC(NC(=O)COc1ccccc1)C(=O)N1CCN(c2cccc(C(F)(F)F)c2)CC1 (centres undefined)	4.2%	6%	/	/
Cc1cnc(C)c(N2CCN(Cc3nc(-c4ccc(C)o4)oc3C)CC2)n1	-0.7%	-8%	-5%	-4
O=C1c2oc3ccc(Cl)cc3c(=O)c2C(c2ccccn2)N1CCCN1CCOCC1 (centres undefined)	-2.5%	5%	-8%	-5
NS(=O)(=O)c1ccc(NC(=O)COC(=O)CNC(=O)C23CC4CC(CC(C4)C2)C3)cc1	-1.4%	-8%	1%	11
CC(=O)c1c(C)nc(C)nc1NC(=O)Cc1ccccc1	1.2%	7%	-3%	6
O=C(NC(=S)Nc1nc2ccc(F)cc2s1)c1ccco1	-4.5%	-6%	-40%	4
CCCn1c(N)c(C(=O)CN(C)CC(=O)Nc2ccc(C)cc2)c(=O)[nH]c1=O	?	-39%	/	/
CN1C(=O)S/C(=C/c2cccnc2)C1=O	-3.9%	-1%	-1%	3
COC(=O)Cn1cc(C(=O)c2ccco2)c2ccccc21	-1.5%	2%	-3%	0
CCOC(=O)N1CCN(c2ccncc2S(=O)(=O)N2CCCCC2)CC1	-5.6%	6%	-4%	/
Cc1oc(CSCCSCc2cc(C(=O)O)c(C)o2)cc1C(=O)O	-0.1%	7%	-2%	/
Cc1cc(N2CCOCC2)ccc1/C=C1\NC(=O)N(CC(=O)Nc2ccccc2C)C1=O	?	?	-12%	-3
CC(C)Cn1c(N2CCN(C(=O)c3cccs3)CC2)nc2ccccc21	0.7%	-1%	5%	0
COc1cc(CNC(C)c2ccccc2)cc(Cl)c1OCC(=O)Nc1ccccc1 (centres undefined)	2.5%	4%	14%	-9
CC(C)CCN(CC(=O)NCc1ccc(F)cc1)S(=O)(=O)c1ccccc1F	-1.2%	1%	14%	/
O=C1CCCN1CCNC(=S)Nc1ccccc1	-0.9%	6%	-3%	7
COc1ccccc1NCCC(=O)OCC(=O)NC1CCCCCC1	-0.6%	-6%	-10%	2
COc1ccc(C2=NN(C(=O)c3ccco3)C(c3cc4ccccc4nc3Cl)C2)cc1 (centres undefined)	-0.1%	-13%	-9%	-1
Cc1ccc(C)c(CNc2ccc(S(=O)(=O)N3CCCCC3)cc2)c1	-1.9%	-8%	/	/
CSc1nc2sc3c(c2c(=O)n1C)CCCC3	?	-14%	-21%	0
O=c1[nH]c(SCCOc2cccc3ccccc23)nc2ccccc12	-2.5%	15%	-2%	0
CCn1c(SCc2ccc(C#N)cc2)nnc1-c1ccc(S(=O)(=O)N2CCCCC2)cc1	-3.1%	0%	29%	4
CCNC(=O)C1CN(S(=O)(=O)c2ccccc2)CCN1S(=O)(=O)c1ccccc1 (centres undefined)	-5.5%	-11%	-7%	11
C[C@H]1CN([C@@H](C)CO)C(=O)c2cccc(NS(=O)(=O)c3cn(C)cn3)c2O[C@H]1CN(C)S(C)(=O)=O	-5.4%	-17%	/	/
Cc1oc(CC(C)C)cc1C(=O)Nc1ccc(C(=O)O)cc1	0.4%	?	-55%	-2
CCC(Oc1ccccc1F)C(=O)NCCCn1ccnc1 (centres undefined)	-0.4%	10%	7%	/
Cc1cc(C)n(-c2nnc(NC34CC5CC(CC(C5)C3)C4)nn2)n1	0.0%	-4%	-85%	-5
COc1ccc(C(=O)N2CCCC2)cc1S(=O)(=O)N1CCC(C)CC1	1.8%	3%	-1%	5
NC(=O)C1Cc2ccccc2CN1C(=O)c1nn(Cc2ccccc2)c(=O)c2ccccc12 (centres undefined)	-0.1%	-1%	/	/

From PubChem
